Compound activity from PubChem BioAssay.
Salmonella PhoP GFP = inhibitors of PhoP regulon expression, primary screen, Salmonella Typhimurium, GFP reporter (AID 1863) | S. Typhimurium PhoP-regulated promoter GFP reporter, 4 h; higher % means a stronger effect | inhibition, % at 50 µM; hits with a dose series show IC50 in µM | 300,000 compounds, 0.16% hits;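 active means inhibition over 29.93%, a cutoff 3 SD above the screen mean, later confirmed by dose response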;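 further: 0% = low Mg2+ inducing control and 100% = high Mg2+ repressing control; strong numbers were not always called active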
T cell HTS = T cell immune modulators affecting CD8 T cell-vesicle binding; 2C CD8+ T cell-vesicle binding, flow cytometry; stronger effect = lower value; calls only at 7 µM; 330,000 compounds, 0.068% hits;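 active means response, share of CD8 T cells binding vesicles, and their 90th percentile fluorescence all below set limits, cut at about 80% in these data, passing the limit was not always enough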
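Material: murine 2C transgenic CD8+ T lymphocytes / Also added: QL9-peptide-loaded Drosophila micro-vesicles bearing Ld, ICAM-1 and B7-1 / Schedule: binding step 1.5 h, 37 °C, antibody labelling 20 min, ice / Signal: flow cytometry, PE anti-B7-1 (FL2) versus Alexa647 anti-CD8 (FL8), PFA-fixed / Evaluation: percent CD8+ FL2 mean versus row control / Benchmarks: naked versus QL9-loaded vesicles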
Autophagy mod = modulators of autophagy. AID 463193. 190,000 compounds, 0.98% hits. calls only at 10 µM (by protocol). MEF GFP-LC3 puncta imaging; test concentration mostly 10 µM;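 active means percentage of spot-positive cells more than 3 SD above its plate mean, without a fluorescence outlier flag or 80% toxicity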;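 further: spot-positive cell cutoff set from DMSO-treated cells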
CSM14.1 death rescue = rescue of cells from ER stress-induced death, primary screen, 384-well, CSM14.1, thapsigargin, ATP luminescence (AID 1222). CSM14.1 thapsigargin-induced death rescue, ATP luminescence; higher % means a stronger effect. cellular ATP content (survival), % at 20 µM, or EC50 in µM where a hit was titrated. 190,000 tested, under 10 active;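 active means EC50 below 50 µM in the dose-response confirmation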;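 further: death triggered by thapsigargin at about 15 µM added after 2 h compound pretreatment; cell ATP read after overnight thapsigargin exposure of roughly 18 to 22 hours; normalized against plate controls of thapsigargin alone and 5% DMSO vehicle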
MT stabilize HCS = stabilizes microtubules in HeLa cells; AID 2205; 200,000 compounds, 0.83% hits; % tubulin-high responders, % at 10 µM; HeLa tubulin immunostaining HCS, 24 h; share of cells brighter than vehicle mean+2SD;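 active means plate Z-score above 3 for both tubulin-high and condensed-nucleus cell shares, with cell loss under 80%, at 10 µM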;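 further: anti alpha tubulin signal scored within the nucleus-defined area of each cell; some results filed as inactive read as strong as hits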
Dynein cargo inh = dynein cargo transport inhibition | 3617.4 mouse cells, GR-EGFP nuclear translocation imaging; test concentration mostly 20 µM; stimulated with dexamethasone, 1 µM; stronger effect = lower value | z-score, hits read low | 220,000 compounds, 0.47% hits | AID 1381;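 active means plate z-score of nuclear minus cytoplasmic receptor signal below a set negative limit, without overly bright fluorescence or cell loss, cut at about -3.5 in these data, passing the limit was not always enough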;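 further: z-score of nuclear minus cytoplasmic ring GR-EGFP intensity difference per well; some compounds called inactive have numbers as strong as hits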
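Buffer or medium: tet-free, stripped-serum medium; reagent: dexamethasone at 1.0 µM final, 30 min; incubation: 48 h induction, 1 h compound, 30 min dex at 37 °C; measured by: formaldehyde fixation, Hoechst nuclear stain, 10x automated fluorescence imaging; read-out: nuclear-to-cytoplasmic GR-EGFP distribution per well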
Insulin prom up = MIN6 insulin promoter up-regulation; 190,000 compounds, 0.3% hits; AID 1625; MIN6 insulin promoter-GFP reporter, high-content imaging; stronger effect = higher value; z-score at 5 µM;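 active means z-score above 3 at 5 µM with at least 500 cells counted in the well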
Dynein cargo inh cytoplasmic EGFP = also measured in Dynein cargo inh; calls as there; z-score; measured here: cytoplasmic GR-EGFP intensity; stronger effect = higher value
Dynein cargo inh nuclear GR-EGFP = also measured in Dynein cargo inh; calls as there; z-score; measured here: nuclear GR-EGFP intensity;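 lower value marks the stronger effect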
Dynein cargo inh cell count = further read-out of Dynein cargo inh, marked with its call; z-score; measured here: cell count per field
Insulin prom up cell count = recorded beside Insulin prom up, whose call it bears; cell count; measured here: cytotoxicity, nuclei count;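 total cells summed across four imaged fields per well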
T cell HTS vesicle-bound % = second read-out of T cell HTS, no call of its own (marks repeat the call); double positive events, %; measured here: CD8+ vesicle-bound cell fraction;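 binding gate set so that unloaded-vesicle control wells show 10% double positive cells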
MT stabilize HCS Hoechst-high % = also measured in MT stabilize HCS; calls as there; % Hoechst-high responders; measured here: nuclear condensation Hoechst responders;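 share of cells brighter than vehicle mean plus two SD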
MT stabilize HCS cytotoxicity % = further read-out of MT stabilize HCS, marked with its call; toxicity, %; measured here: cytotoxicity by cell density;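 0% = mean cell density of plate MIN control wells and 100% = no cells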
Autophagy mod cell loss 18 h = further read-out of Autophagy mod, marked with its call; toxicity, %; measured here: cell loss, nuclei count;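 cell loss after 18 h compound exposure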
* hit, by the source's call. Some of the compounds tested; the hit share may differ from the screen's.

Results for Cc1ccc(NS(=O)(=O)c2ccc(NC(=O)c3cccc(NC(=O)C(C)C)c3)cc2)cc1 ?
Salmonella PhoP GFP: 0%; T cell HTS: inactive; Autophagy mod: inactive; CSM14.1 death rescue: 0.9%; MT stabilize HCS: 2.1; Dynein cargo inh: 0.2; Insulin prom up: 0.25; Dynein cargo inh cytoplasmic EGFP: -0.2; Dynein cargo inh nuclear GR-EGFP: -0.17; Dynein cargo inh cell count: 0.13; Insulin prom up cell count: 1533; T cell HTS vesicle-bound %: 10; MT stabilize HCS Hoechst-high %: 1.7; MT stabilize HCS cytotoxicity %: 8.2; Autophagy mod cell loss 18 h: 2

What do the screens show for `COc1ccc(C2CC(=O)C(C=NCCN3CCOCC3)=C(O)C2)cc1` (centres undefined)?
Salmonella PhoP GFP: 3%; T cell HTS: inactive; Autophagy mod: inactive; CSM14.1 death rescue: -2.7%; MT stabilize HCS: 4.0; Dynein cargo inh: 0.65; Insulin prom up: 0.03; Dynein cargo inh cytoplasmic EGFP: 0.076; Dynein cargo inh nuclear GR-EGFP: 1; Dynein cargo inh cell count: -2.2; Insulin prom up cell count: 1592; T cell HTS vesicle-bound %: 7; MT stabilize HCS Hoechst-high %: 1.8; MT stabilize HCS cytotoxicity %: 10; Autophagy mod cell loss 18 h: 4

What do the screens show for `C=CCn1c(SCc2nc3ccccc3[nH]2)nnc1-c1cccc(OC)c1`?
Salmonella PhoP GFP: 3%; T cell HTS: inactive; Autophagy mod: inactive; CSM14.1 death rescue: -0.2%; MT stabilize HCS: 2.6; Dynein cargo inh: 0.14; Insulin prom up: -0.46; Dynein cargo inh cytoplasmic EGFP: -0.26; Dynein cargo inh nuclear GR-EGFP: 0.21; Dynein cargo inh cell count: -0.38; Insulin prom up cell count: 1056; T cell HTS vesicle-bound %: 31; MT stabilize HCS Hoechst-high %: 2.7; MT stabilize HCS cytotoxicity %: 6.3; Autophagy mod cell loss 18 h: 11

What do the screens show for `COc1ccc(CNC(=O)Cc2c(C(=O)O)[nH]c3ccccc23)cc1`?
Salmonella PhoP GFP: -9%; T cell HTS: inactive; Autophagy mod: inactive; CSM14.1 death rescue: -0.4%; MT stabilize HCS: 2.6; Dynein cargo inh: 1.4; Insulin prom up: -0.06; Dynein cargo inh cytoplasmic EGFP: -0.18; Dynein cargo inh nuclear GR-EGFP: 1.5; Dynein cargo inh cell count: -0.098; Insulin prom up cell count: 1583; T cell HTS vesicle-bound %: 43; MT stabilize HCS Hoechst-high %: 1.6; MT stabilize HCS cytotoxicity %: 6.8; Autophagy mod cell loss 18 h: -21

Results for CCCn1c(-c2cc(OC)c(OC)c(OC)c2)nc2nc3ccccc3nc21 ?
Salmonella PhoP GFP: 18%; T cell HTS: inactive; Autophagy mod: inactive; CSM14.1 death rescue: -0.3%; MT stabilize HCS: 2.9; Dynein cargo inh: -1.2; Insulin prom up: -0.35; Dynein cargo inh cytoplasmic EGFP: -0.2; Dynein cargo inh nuclear GR-EGFP: -1.1; Dynein cargo inh cell count: 0.96; Insulin prom up cell count: 1515; T cell HTS vesicle-bound %: 43; MT stabilize HCS Hoechst-high %: 2.0; MT stabilize HCS cytotoxicity %: 8.0; Autophagy mod cell loss 18 h: 0

What do the screens show for `COc1ccccc1Cn1nnc2c(=O)[nH]c(C3CCN(C(=O)c4ccc(F)cc4)CC3)nc21`?
Salmonella PhoP GFP: -3%; T cell HTS: inactive; Autophagy mod: inactive; CSM14.1 death rescue: 0.8%; MT stabilize HCS: 2.4; Dynein cargo inh: 0.67; Insulin prom up: -0.36; Dynein cargo inh cytoplasmic EGFP: -0.09; Dynein cargo inh nuclear GR-EGFP: 0.96; Dynein cargo inh cell count: -0.63; Insulin prom up cell count: 1517; T cell HTS vesicle-bound %: 57; MT stabilize HCS Hoechst-high %: 1.7; MT stabilize HCS cytotoxicity %: 7.1; Autophagy mod cell loss 18 h: 14

How did COc1ccc(NC(=O)C(CCS(C)(=O)=O)NC(C)=O)cc1 (centres undefined) do in these assays?
Salmonella PhoP GFP: 13%; T cell HTS: inactive; Autophagy mod: inactive; CSM14.1 death rescue: -1.3%; MT stabilize HCS: 4.4; Dynein cargo inh: -1; Insulin prom up: 0.75; Dynein cargo inh cytoplasmic EGFP: -0.35; Dynein cargo inh nuclear GR-EGFP: -0.44; Dynein cargo inh cell count: 0.49; Insulin prom up cell count: 1492; T cell HTS vesicle-bound %: 45; MT stabilize HCS Hoechst-high %: 4.4; MT stabilize HCS cytotoxicity %: 7.3; Autophagy mod cell loss 18 h: 19

Results for Cc1oc2cc(O)ccc2c(=O)c1-c1cnn(-c2ccccc2)c1 ?
Salmonella PhoP GFP: -2%; T cell HTS: inactive; Autophagy mod: inactive; CSM14.1 death rescue: 2.2%; MT stabilize HCS: 4.8; Dynein cargo inh: 0.13; Insulin prom up: -1.2; Dynein cargo inh cytoplasmic EGFP: -0.14; Dynein cargo inh nuclear GR-EGFP: 0.58; Dynein cargo inh cell count: -0.87; Insulin prom up cell count: 1549; T cell HTS vesicle-bound %: 27; MT stabilize HCS Hoechst-high %: 3.1; MT stabilize HCS cytotoxicity %: 4.1; Autophagy mod cell loss 18 h: -21

What do the screens show for `O=C(Nc1ccc(-c2nc3ccccc3[nH]2)cc1)c1ccc2c(c1)OCO2`?
Salmonella PhoP GFP: -8%; T cell HTS: inactive; Autophagy mod: inactive; CSM14.1 death rescue: -2.4%; MT stabilize HCS: 2.3; Dynein cargo inh: 0.73; Insulin prom up: -0.2; Dynein cargo inh cytoplasmic EGFP: -0.13; Dynein cargo inh nuclear GR-EGFP: 1.3; Dynein cargo inh cell count: -0.99; Insulin prom up cell count: 1408; T cell HTS vesicle-bound %: 38; MT stabilize HCS Hoechst-high %: 1.7; MT stabilize HCS cytotoxicity %: 10.0; Autophagy mod cell loss 18 h: -30

Results for CCc1cccc(CC)c1NC(=O)CN1CC(C)SC1=NC1CCCCC1 (centres undefined) ?
Salmonella PhoP GFP: -12%; T cell HTS: inactive; Autophagy mod: inactive; CSM14.1 death rescue: 1.3%; MT stabilize HCS: 3.3; Dynein cargo inh: 0.0035; Insulin prom up: 0.49; Dynein cargo inh cytoplasmic EGFP: -0.22; Dynein cargo inh nuclear GR-EGFP: -0.14; Dynein cargo inh cell count: -0.13; Insulin prom up cell count: 1543; T cell HTS vesicle-bound %: 30; MT stabilize HCS Hoechst-high %: 1.3; MT stabilize HCS cytotoxicity %: 4.1; Autophagy mod cell loss 18 h: 0

Results for O=C1NN(c2ccccc2)C(=O)/C1=C\c1ccccc1OCC(=O)N1CCOCC1 ?
Salmonella PhoP GFP: 3%; T cell HTS: inactive; Autophagy mod: inactive; CSM14.1 death rescue: 0.3%; MT stabilize HCS: 1.4; Dynein cargo inh: 0.17; Insulin prom up: 0.39; Dynein cargo inh cytoplasmic EGFP: -0.13; Dynein cargo inh nuclear GR-EGFP: -0.11; Dynein cargo inh cell count: 0.087; Insulin prom up cell count: 1236; T cell HTS vesicle-bound %: 29; MT stabilize HCS Hoechst-high %: 1.1; MT stabilize HCS cytotoxicity %: 8.1; Autophagy mod cell loss 18 h: 7

Results for CN1CCN(c2ccc([N+](=O)[O-])cc2C(=O)c2ccc(Br)cc2)CC1 ?
Salmonella PhoP GFP: -6%; T cell HTS: inactive; Autophagy mod: inactive; CSM14.1 death rescue: -6.2%; MT stabilize HCS: 20*; Dynein cargo inh: -0.7; Insulin prom up: 0.62; Dynein cargo inh cytoplasmic EGFP: -0.19; Dynein cargo inh nuclear GR-EGFP: -0.4; Dynein cargo inh cell count: 0.24; Insulin prom up cell count: 1524; T cell HTS vesicle-bound %: 28; MT stabilize HCS Hoechst-high %: 9.5*; MT stabilize HCS cytotoxicity %: 33*; Autophagy mod cell loss 18 h: 35

Results for CC(=O)Nc1nc2ccc(Br)cc2s1 ?
Salmonella PhoP GFP: 9%; T cell HTS: inactive; Autophagy mod: inactive; CSM14.1 death rescue: -1.3%; MT stabilize HCS: 3.9; Dynein cargo inh: -0.59; Insulin prom up: 0.61; Dynein cargo inh cytoplasmic EGFP: -0.26; Dynein cargo inh nuclear GR-EGFP: 0.11; Dynein cargo inh cell count: -0.13; Insulin prom up cell count: 1589; T cell HTS vesicle-bound %: 18; MT stabilize HCS Hoechst-high %: 3.3; MT stabilize HCS cytotoxicity %: 6.8; Autophagy mod cell loss 18 h: 13

Already shown: entries from further up.
Results for CN1CCN(c2ccc([N+](=O)[O-])cc2C(=O)c2ccc(Br)cc2)CC1 ?
Salmonella PhoP GFP: -6%; T cell HTS: inactive; Autophagy mod: inactive; CSM14.1 death rescue: -6.2%; MT stabilize HCS: 20*; Dynein cargo inh: -0.7; Insulin prom up: 0.62; Dynein cargo inh cytoplasmic EGFP: -0.19; Dynein cargo inh nuclear GR-EGFP: -0.4; Dynein cargo inh cell count: 0.24; Insulin prom up cell count: 1524; T cell HTS vesicle-bound %: 28; MT stabilize HCS Hoechst-high %: 9.5*; MT stabilize HCS cytotoxicity %: 33*; Autophagy mod cell loss 18 h: 35

Results for CC(=O)Nc1nc2ccc(Br)cc2s1 ?
Salmonella PhoP GFP: 9%; T cell HTS: inactive; Autophagy mod: inactive; CSM14.1 death rescue: -1.3%; MT stabilize HCS: 3.9; Dynein cargo inh: -0.59; Insulin prom up: 0.61; Dynein cargo inh cytoplasmic EGFP: -0.26; Dynein cargo inh nuclear GR-EGFP: 0.11; Dynein cargo inh cell count: -0.13; Insulin prom up cell count: 1589; T cell HTS vesicle-bound %: 18; MT stabilize HCS Hoechst-high %: 3.3; MT stabilize HCS cytotoxicity %: 6.8; Autophagy mod cell loss 18 h: 13
